# Screening results as filed in PubChem.
# VDR inh: Inhibitors of the vitamin D receptor (VDR): qHTS | hit rate 0.93% among 400,000 | Potency, µM, without a hit: max response, negative = inhibition, actives largely listed as inhibitors | VDR-SRC2-3 peptide fluorescence polarization, 2 h | Vitamin D3 receptor (Homo sapiens), P11473; active means well fitted inhibition curve with a large enough effect; inconclusive means small, poorly fitted or top-dose-only effect, or another doubt; inactive means no such curve, though single readings can be large or run the other way; further: series mostly up to about 120 µM
# Target sequence (P11473 whole entry, looked up): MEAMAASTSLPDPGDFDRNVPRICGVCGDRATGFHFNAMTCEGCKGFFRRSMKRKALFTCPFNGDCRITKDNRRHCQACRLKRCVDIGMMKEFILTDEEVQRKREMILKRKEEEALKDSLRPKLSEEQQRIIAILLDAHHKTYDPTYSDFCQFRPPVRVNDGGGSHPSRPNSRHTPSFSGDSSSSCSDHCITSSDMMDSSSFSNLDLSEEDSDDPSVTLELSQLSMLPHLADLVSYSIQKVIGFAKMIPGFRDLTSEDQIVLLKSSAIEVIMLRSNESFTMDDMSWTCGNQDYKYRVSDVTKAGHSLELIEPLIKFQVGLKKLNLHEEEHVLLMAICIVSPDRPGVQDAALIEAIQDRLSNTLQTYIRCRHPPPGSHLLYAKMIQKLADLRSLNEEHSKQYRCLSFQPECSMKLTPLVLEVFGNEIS
#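 Signal is fluorescence polarization, reporting how far test compounds block the interaction of VDR with the SRC2-3 coregulator peptide after a 2 h room-temperature incubation.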
# * marks the source's active call; other numbers are inactive results; ? = inconclusive; & = joins results of further samples; [ ] = remark or other dose. On the % scale 0 is the no-effect control and ±100 the full control effect; potency means the concentration at half of the fitted maximal effect. A portion of the library; the hit share may differ from the screen's.
SMILES,VDR inh
CCCCOc1ccc(-c2nc(-c3cccnc3)no2)cc1,15%
Cc1ccc(CNCCCn2cnc(C(=O)Nc3ccc(C)c(C)c3)n2)o1,-5%
CCOc1ccc(C(=O)NCCN2CCOCC2)cc1,-12%
O=C(NCCNCCO)C1(C(F)(F)F)C/C(=C\CCO)CCCO1 (stereo not given),12%&-12%
COc1ccc(OC)c(NC(=O)C2CC(=O)N(Cc3ccco3)C2)c1 (stereo not given),-21%
COc1ccc(C(=O)NCc2cccnc2)cc1S(=O)(=O)N1CCOCC1,11%
C=CCOc1ccc(/C=N/NC(=O)CN2CCOCC2)cc1OCC,-1%
Cc1cc(=O)[nH]c(SCC(=O)Nc2cccc(C(F)(F)F)c2)n1,-4%
CCN(CC)CCn1c2ccccc2c2nc(C)sc21,-15%
COc1ccc(C2C(C#N)=C(N)N(c3ncn[nH]3)C3=C2C(=O)CCC3)cc1 (stereo not given),-7%
Cc1nn(-c2ccccc2)c2nc3c(cc12)C(=O)CCC3,?
O=C(CSc1nnc(CNC(=O)c2cccc(C(F)(F)F)c2)o1)NCC1CCCO1 (stereo not given),-4%
FC(F)(F)c1cccnc1Oc1ccc(C2=NCCS2)cc1,-8%
COc1ccccc1NC(=O)c1ccc(C)c(S(=O)(=O)N2CCCCC2)c1,4%
Cc1ccccc1NC(=O)COC(=O)c1ccc(S(=O)(=O)N2CCCC2)cc1,-6%
O=C(N/N=C/c1cn[nH]c1-c1ccc(Cl)cc1)c1ccc([N+](=O)[O-])cc1,-2%
O=c1ccn(Cc2ccccc2)c(SCc2ccccc2)n1,-11%
Cc1ccc(S(=O)(=O)NC(=O)NCc2ccccn2)cc1,4%
C=C1CCC[C@]2(C)C[C@H]3OC(=O)C(CNCC(C)C)[C@H]3CC12 (stereo not given in full),10%
CCOC1=C(C#N)CC2(CC1)c1ccccc1-c1ccccc12,-4%
Cc1cc(C)n(Cc2ccc(C(=O)N/N=C/c3ccc(-c4ccc([N+](=O)[O-])cc4)o3)o2)n1,4%
O=C(Cn1c(NCCO)nc2ccccc21)NCCc1ccc(F)cc1,24%
Cc1ccc(C(=O)NCC(c2ccco2)N2CCc3ccccc3C2)cc1 (stereo not given),?
Cc1cc(C)nc(/N=C(\N)Nc2cccc(OCc3ccccc3)c2)n1,-12%
COc1ccc(N2C(=O)CC(NNc3ncc(Cl)cc3Cl)C2=O)cc1 (stereo not given),-11%

# A different layout for 4 compounds above:
SMILES: COc1ccc(C(=O)NCc2cccnc2)cc1S(=O)(=O)N1CCOCC1
  VDR inh = 11%

SMILES: C=CCOc1ccc(/C=N/NC(=O)CN2CCOCC2)cc1OCC
  VDR inh = -1%

SMILES: Cc1cc(=O)[nH]c(SCC(=O)Nc2cccc(C(F)(F)F)c2)n1
  VDR inh = -4%

SMILES: CCN(CC)CCn1c2ccccc2c2nc(C)sc21
  VDR inh = -15%

# Following part:
SMILES,VDR inh
COc1ccc(C2C3=C(CCCC3=O)N(CC(=O)O)C3=C2C(=O)CCC3)cc1,8%
COC(=O)c1ccccc1NC(=O)Cn1cc(Br)cn1,8%
Oc1ccc(C=NCCc2ccccc2)cc1,18%
O=C(CSc1ccccn1)Nc1ccc(N2CCOCC2)cc1,-23%
O=C1NC(=O)/C(=C\c2ccc(Cl)cc2Cl)N1,7%
Cc1cccnc1N(C(=O)Nc1cccc(Cl)c1)C1=NCC(C)(C)S1,19%
CCC12CC3CC(C1)CC(C(=O)NNC(N)=O)(C3)C2,1%
O=c1cc(N2CCC3(CC2)OCCO3)[nH]c(=O)n1-c1ccc(Br)cc1,-6%
Cc1c(Cl)c(C(F)(F)F)nn1CC(=O)NCc1ccccc1,5%
O=C(Cn1c(=O)oc2ccccc21)N1CCCC1,2%
CN(C)C(=S)SCC(=O)Nc1cccc(C(F)(F)F)c1,-4%
CN(/N=C/c1ccccc1O)C(=S)c1ccccc1,16%
CC1CCc2nc3ccc(S(=O)(=O)N4CCC(C(=O)NC(C)c5ccccc5)CC4)cc3c(C(=O)O)c2C1 (stereo not given),5%
Cc1ccccc1NC(=O)N1CCC(C(=O)c2ccc(F)cc2)CC1,-9%
CCS(=O)(=O)C1=NN2C(=N)/C(=C\c3ccc(OC(=O)c4ccco4)cc3)C(=O)N=C2S1,7%
COc1ccc(CN2C(=O)c3ccccc3C2C(=O)NCCc2ccccc2)c(OC)c1 (stereo not given),-4%&-4%
Cc1ccc(NC(=O)C(OC(=O)c2cc(C)oc2C)c2ccccc2)cc1 (stereo not given),9%
CCN1CCN(C(=O)c2ccc(Cl)c(S(=O)(=O)N(C)c3ccccc3)c2)CC1,4%
O=C(Nc1cccc(C(=O)OCc2cc(=O)n3nc(C4CC4)sc3n2)c1)c1ccccc1,13%
CN(C)S(=O)(=O)c1cccc(C(=O)NCCOC(=O)c2cc(F)c(F)cc2Cl)c1,-1%
CCS(=O)(=O)N1CCC(C(=O)NCCCN2CCC(Cc3ccccc3)CC2)CC1,8%
CCOc1cc2c(cc1C(C)(C)C)NC(=O)CS2,6%
c1ccc(CSc2nnc(-c3ccco3)o2)cc1,-17%
O=C(O/N=C\c1ccc(N2CCOCC2)c([N+](=O)[O-])c1)c1ccccc1Cl,3%
CC(C)CCNC(=O)CCCn1c(=O)[nH]c2ccc(Br)cc2c1=O,-8%
# Going on with the list:
SMILES,VDR inh
COc1ccc(OC)c(NC(=O)CSC2=Nc3ccccc3C3=NC(CC(=O)NCc4ccco4)C(=O)N23)c1 (stereo not given),2%
Fc1ccc(-c2n[nH]c(=S)n2Cc2ccccc2)cc1,-16%
Cc1ccc(C)c(NC(=S)NC2CC3CCCC(C2)N3CC(C)C)c1 (stereo not given),-5%
Cc1c(Cl)cccc1NC(=O)CCS(=O)(=O)c1ccc2c(c1)CC(C)N2C(=O)C1CC1 (stereo not given),22%
CCOC(=O)c1c(C)oc2c1c(CN1CCN(C(=O)OCC)CC1)c(O)c1ccccc12,50µM*
Cc1ccccc1NC(=O)C(=O)NCCc1c[nH]c2ccccc12,-13%
Cc1ccc(NC(=O)C2CC(=O)Nc3nc4ccccc4n32)c(C)c1 (stereo not given),-2%
CCn1ncc([C@@H]2C[C@H]3CN(Cc4cccc(Cl)c4)C(=O)[C@]34CCCN24)c1C,-13%
COc1ccc(-c2cc(C(=O)NC3CCCC3)c3ccccc3n2)cc1,-28%
COc1ccc(OCc2nnnn2-c2ccccc2)cc1,5%
O=C1CCCC2=C1C(c1ccccc1O)C1=C(CCCC1=O)O2,-16%
Cc1ccc(S(=O)(=O)N2CCN(Cc3nc4sc(C)c(C)c4c(=O)[nH]3)CC2)cc1,-6%
COC(=O)C1=C(C)N(C2CCCC2)C(=O)C1(NC(C)=O)C(F)(F)F (stereo not given),-11%
C/C(=N/NC(=O)CNC(=O)Cc1ccc(Cl)cc1)c1ccco1,16%
O=C(Nc1ccc(F)cc1)C(c1ccccc1)N1CCN(S(=O)(=O)c2c(F)cccc2F)CC1 (stereo not given),11%
COc1ccc(-c2ccccc2[C@H]2[C@@H]3C=CC[C@@H](C)[C@@H]3C(=O)N2Cc2ccccc2)cc1,?
CCc1ccccc1NC(=O)c1cnn2c(C(F)(F)F)cc(-c3ccc(OC)c(OC)c3)nc12,9%
COc1ccc(CC(=O)NC(=S)Nc2cccc(C)c2)cc1,11%
COc1ccc(C2c3c(n(C)c4ccccc34)C(=O)N2CC(=O)Nc2ccc(C)cc2Cl)cc1 (stereo not given),-5%
O=C(CSc1nnc2c(n1)[nH]c1ccccc12)OCc1ccccc1,13%
CC(C)CC(=O)Nc1ccnc(-c2ccncc2)n1,-6%
CCOC(=O)C(=CNc1ccccc1C)C(=O)OCC,-3%
O=C(CN1C(=O)C(c2ccc(F)cc2)=NC12CCCCCC2)Nc1ccc(F)c(Cl)c1,0%
CCCCNC(=S)NNC(=O)c1ccc(Br)o1,11%
CCOC(=O)c1ccccc1NC(=O)C1COc2ccccc2O1 (stereo not given),5%

# The final 3 records of the part above lead into the next.
SMILES,VDR inh
O=C(CN1C(=O)C(c2ccc(F)cc2)=NC12CCCCCC2)Nc1ccc(F)c(Cl)c1,0%
CCCCNC(=S)NNC(=O)c1ccc(Br)o1,11%
CCOC(=O)c1ccccc1NC(=O)C1COc2ccccc2O1 (stereo not given),5%
COc1ccc(CCNC(=O)CN2C(=O)COc3ccc(S(=O)(=O)N4CCCC4)cc32)cc1OC,-9%&10%
COc1ccccc1-c1cc(C(=O)N2CCN(c3ccccc3)CC2)no1,-6%&-20%
COc1ccc(N2CCN(C(C)=C3C(=O)c4ccccc4C3=O)CC2)cc1,70%[activator]
COc1ccc(OCC(=O)O/N=C(\N)Cc2cccs2)cc1,-20%
COc1ccc(NC(=O)Cc2ccc(Cl)cc2)cc1NC(=O)c1ccco1,7%
Cc1noc(C)c1-c1cncnc1NC1CC1,-22%
Fc1ccc(-c2cnc(-c3cccs3)o2)cc1,-19%
O=C(Cn1c2ccc(F)cc2c2nc3n(c(=O)c21)CCS3)NCC1CCCO1 (stereo not given),4%
Cc1nc(-c2ccccc2)sc1C(=O)CSc1ccc(F)cc1,-5%
CSCC[C@@H](CO)NC(=O)c1ccc2nc(C3CCCCC3)oc2c1,2%
O=C1NC(=O)/C(=C\c2ccccc2OCc2ccccc2)S1,-9%
CCn1c(=O)c2sccc2n2c(CCCC(=O)NCc3cccnc3)nnc12,-3%
Cc1cc(NC(=O)c2cc3ccccc3o2)no1,-6%
CC(Oc1ccccc1)c1nnc(N)s1 (stereo not given),8%
CCCNC(=O)NS(=O)(=O)c1cnccc1Sc1ccc(Cl)cc1,5%
Cc1c(NC(=O)Nc2ccc(F)c(Cl)c2)c(=O)n(-c2ccccc2)n1C,2%
Cc1cc(C(=O)COC(=O)CCCN2C(=O)c3ccccc3C2=O)c(C)n1C,11%
Cc1ccc(-n2c(SCC(N)=O)nc3c(c2=O)C2(CCCC2)Cc2ccccc2-3)cc1,-7%
O=C(Oc1ccc2c(=O)c(Cl)coc2c1)c1cccnc1,-7%
COc1ccc(/C=N/NC(=O)c2ccc3ccccc3c2)cc1OS(=O)(=O)c1ccc(NC(C)=O)cc1,14%
C=CC[C@H](CC(=O)N(CCO)Cc1ccccc1)C(=O)N[C@@H](COC(=O)[C@@H](CC=C)Cc1ccc(F)cc1)Cc1ccccc1,-16%
O=C(CS(=O)(=O)Cc1ccccc1)Nc1ccc(Br)cc1F,-24%
O=C(CCc1nnc(C2CCCCC2)o1)N1CCN(C2CCCCC2)CC1,1%
O=C(/C=C/c1cccc([N+](=O)[O-])c1)N1CCN(S(=O)(=O)c2cccs2)CC1,-20%
CC(C)CN(CCCNC(=O)c1cc(-c2ccc(Br)s2)nc2ccccc12)CC(C)C,-10%

# VDR inh: hit marks shown above.
SMILES,VDR inh
CCOC(=O)c1c(C)oc2c1c(CN1CCN(C(=O)OCC)CC1)c(O)c1ccccc12,50µM*

# 3 compounds already listed, sorted by SMILES length, descending:
SMILES,VDR inh
Cc1ccc(-n2c(SCC(N)=O)nc3c(c2=O)C2(CCCC2)Cc2ccccc2-3)cc1,-7%
O=C(CCc1nnc(C2CCCCC2)o1)N1CCN(C2CCCCC2)CC1,1%
O=C(CS(=O)(=O)Cc1ccccc1)Nc1ccc(Br)cc1F,-24%

# The list goes on.
SMILES,VDR inh
O=C(CSc1nnc(-c2ccccc2)n1-c1ccccc1)c1ccc[nH]1,-28%
C=CCn1c(SCc2nc3ccccc3nc2C)nnc1-c1ccoc1C,?
C/C=C/C(=O)Nc1cccc(C2=NOC3(C2)C[C@@H](C(N)=O)N(C(=O)c2cc([N+](=O)[O-])cc([N+](=O)[O-])c2)C3)c1 (stereo not given in full),-8%
OCC[C@H]1C[C@H](O)[C@@H](O)[C@]2(Cc3ccccc3CCO2)O1,-13%
Cc1ccc(-c2ccc(/C=C/C(=O)c3ccccc3)o2)cc1,-13%
CCOC(=O)c1nc(Nc2ccc(C(C)=O)cc2)c2ccccc2n1,-8%&-4%
Cc1ccc(S(=O)(=O)N/N=C\c2ccc([N+](=O)[O-])o2)cc1,-2%
Cc1csc(NC(=O)C2CCCO2)n1 (stereo not given),9%
O=C(Nc1cccc(Cl)c1)N1CCC(CO)(CCOc2ccccc2)CC1,-2%
Cc1cnc(NC(=O)Cc2cccs2)s1,-21%
COCCN1C(=O)c2oc3cc(C)c(C)cc3c(=O)c2C1c1cccc(O)c1 (stereo not given),-7%
CCOC(=O)c1sc(N)c(C#N)c1COC(=O)CNC(=O)c1cc(OC)c(OC)c(OC)c1,-1%
Cc1ccc(CNC(=O)CSc2nc3ccsc3c(=O)n2Cc2ccccc2F)cc1,-1%
O=C1CN(c2nnnn2-c2ccccc2)CCN1,4%
CCCc1nc2oc(C(=O)c3ccccc3)c(N)c2c2c1COC(C)(C)C2,12%
CCCC(=O)Nc1ccc(C=C(C(C)=O)C(C)=O)cc1,?
COC(=O)C1=CN(Cc2cccs2)C=C(C(=O)OC)C1c1cccc(Cl)c1,5%
O=C(NCc1ccccc1Cl)c1cccc(OC2CCN(C(=O)C3CC3)CC2)c1,-20%
Cc1ccc(CN(Cc2ccco2)C(=O)COc2ccc(C(C)C)cc2)cc1,33%[activator]
CCc1nc(SCC(=O)Nc2ccc(F)cc2)c2c(=O)n(C)c(=O)n(C)c2n1,1%
CS(=O)(=O)Nc1ccccc1C(=O)N1CCCC1,14%
Cc1cc(C)nc(SCc2ccc(C(=O)N/N=C/c3ccco3)cc2)n1,5%
COc1ccc2c(c1)CC(NC(=O)Nc1c(C)cc(C)cc1C)CO2 (stereo not given),11%
COc1ccc(NC(=O)c2cnc(N3CCCCC3)c3ccccc23)cc1Cl,12%
